Yeast UUG start: yeast start codon fidelity modulation; actives 0.13% (n = 350,000); S. cerevisiae UUG-firefly luciferase reporter, luminescence/redox ratio; AID 602363; activity score, % at 18.7 µM;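 active = replicate mean at a twofold rise or more, about +100% in these data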;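 also: firefly luciferase made from a UUG start codon reports start codon fidelity; reporter light over untreated wells divided by growth signal over untreated wells; some hits fall short of that in this replicate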
Rce1 inh: blocks yeast Ras-converting enzyme; Q03530; yeast membranes, quenched prenylated peptide cleavage fluorescence; calls only; actives 0.27% (n = 290,000); AID 2563;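 active = fall in fluorescence gain of 50% or more versus controls, with final raw signal at or below 3038400; inconclusive = same 50% fall but final raw signal above 3038400; inactive = fall in fluorescence gain under 50%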;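 also: plate controls were neutral control wells for no effect and wells lacking membranes for full effect; tested at 10 µM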
Target sequence (Q03530 whole entry, looked up): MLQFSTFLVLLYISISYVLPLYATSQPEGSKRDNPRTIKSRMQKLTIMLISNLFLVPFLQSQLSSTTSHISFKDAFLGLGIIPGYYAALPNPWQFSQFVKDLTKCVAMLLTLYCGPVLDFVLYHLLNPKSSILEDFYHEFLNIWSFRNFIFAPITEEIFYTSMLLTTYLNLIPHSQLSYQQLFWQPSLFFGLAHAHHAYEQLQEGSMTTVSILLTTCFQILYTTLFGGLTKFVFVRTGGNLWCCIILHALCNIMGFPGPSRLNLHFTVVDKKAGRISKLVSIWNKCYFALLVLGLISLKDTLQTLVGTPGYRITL
PABP FP inh: blocks human PABP binding to poly(A) RNA; fluorescence polarization; P11940; inhibition, % at 35 µM; actives 1% (n = 290,000);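 active = 50% or more with normal probe brightness, or confirmed in later tests; inconclusive = above 50% with abnormal brightness, or retests that disagree; inactive = below 50% or failed in later tests; about a fifth of its hits are not listed in these tables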;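 also: calls also rest on retests at 20 µM and on dose response follow-up; controls were probe without protein and protein plus probe with vehicle; some compounds called inactive have numbers as strong as hits; many hits fall short of the cut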
Target sequence (P11940 whole entry, looked up): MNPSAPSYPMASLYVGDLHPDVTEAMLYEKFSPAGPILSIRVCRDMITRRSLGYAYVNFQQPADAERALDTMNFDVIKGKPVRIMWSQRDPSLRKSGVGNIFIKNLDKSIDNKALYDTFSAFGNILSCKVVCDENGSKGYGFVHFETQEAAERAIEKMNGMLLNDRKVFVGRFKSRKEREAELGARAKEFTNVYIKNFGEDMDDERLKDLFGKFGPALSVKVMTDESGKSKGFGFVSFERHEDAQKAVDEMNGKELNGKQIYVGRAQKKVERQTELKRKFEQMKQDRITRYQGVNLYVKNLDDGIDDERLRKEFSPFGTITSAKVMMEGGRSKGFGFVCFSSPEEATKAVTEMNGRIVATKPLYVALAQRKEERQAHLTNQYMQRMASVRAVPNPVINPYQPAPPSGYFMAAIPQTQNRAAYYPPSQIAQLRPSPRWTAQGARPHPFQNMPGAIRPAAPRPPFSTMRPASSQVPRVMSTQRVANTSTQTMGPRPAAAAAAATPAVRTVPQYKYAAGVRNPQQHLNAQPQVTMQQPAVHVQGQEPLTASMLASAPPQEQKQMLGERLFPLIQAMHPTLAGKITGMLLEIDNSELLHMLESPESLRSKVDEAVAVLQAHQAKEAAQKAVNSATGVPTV
MT1-MMP act inh: inhibitors of human MT1-MMP activation; P50281; HT1080 RFP-PRO-GFP cells, GFP/RFP ratio fluorescence, overnight; percent of plate control window, DMSO zero; GFP/RFP ratio change, % at 20 µM; actives 0.061% (n = 360,000); AID 651647;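 active = GFP/RFP ratio change of at least 30% with cell ATP level not reduced by more than half and red fluorescence within 50% of control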; also: strong numbers were not always called active
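Assay system: HT1080 RFP-PRO-GFP cells | Dosing: 20 µM single dose, 1% DMSO | Incubation: Cells overnight before dosing, compound overnight, 37 °C, 5% CO2 | Evaluation: GFP/RFP fluorescence ratio | Control set: DMSO-only wells and HT1080 RFP-L50D-GFP cell wells as references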
eIF4H FP inh: inhibitors of RNA binding by human eIF4H; inhibition, % at 35 µM; Q15056; actives 0.94% (n = 290,000); eIF4H fluorescence polarization binding assay;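 active = 50% or more with normal probe brightness, or confirmed in later tests; inconclusive = above 50% with abnormal brightness, or retests that disagree; inactive = below 50% or failed in later tests; about a fifth of its hits are not listed in these tables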;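 also: calls also rest on retests at 20 µM and on dose response follow-up; 0% = protein and probe with vehicle and 100% = probe without protein; strong numbers were not always called active; many hits fall short of the cut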
CSC inhib: cancer stem cell inhibition | cancer stem cell-like cells viability, luminescence | inhibition, % at 7.5 µM | actives 1.1% (n = 300,000) | AID 2717;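 active = mean at 75% or more and at least half the replicates too; inconclusive = mean and replicates disagree; tested in HMLE shEcad cells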;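 also: 0% = median of negative and 100% = median of positive control wells; the first replicate is given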
Env fusion inh: HIV envelope-mediated fusion inhibition; inhibition, % at 12.3 µM; actives 1.1% (n = 360,000); HeLa-JRFL Env/CEM21 cell fusion, luciferase;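 active = mean replicate inhibition score of at least 50 and every replicate individually at or above 50; inconclusive = only one of the two criteria met; inactive = mean below 50 and not all replicates reaching 50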;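 also: 0% = plate neutral controls and 100% = maraviroc near 300 nM; one replicate is shown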
MT1-MMP act inh RFP: recorded beside MT1-MMP act inh, whose call it bears; RFP signal change, %; measured here: RFP expression control read;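 0 = vehicle wells; hits needed this value within 50% of zero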
* = called active by the depositor; i = inactive; ? = inconclusive; . = no result given; & = joins results of further samples.

SMILES | Yeast UUG start | Rce1 inh | PABP FP inh | MT1-MMP act inh | MT1-MMP act inh RFP | eIF4H FP inh | CSC inhib | Env fusion inh
CC(NC(=O)c1ccco1)C(=O)Nc1nc(-c2ccccn2)cs1 (configuration not stated) | -33 | i | 3 | 2 | 3 | 20 | 4 | -40
Cc1ccc2[nH]c(C(=O)N3CCN(C(c4ccccc4)c4ccccc4)CC3)cc2c1 | -11 | i | 6 | 0 | 0 | 7 | 19 | 15
CCOC(=O)c1[nH]c(=O)[nH]c1CN(Cc1ccco1)Cc1[nH]c(=O)[nH]c1C(=O)OCC | . | i | 3 | 0 | 5 | -4 | 7 | 12
N#CCCn1c(SCC(=O)NCc2ccco2)nc2ccccc21 | -9 | i | 10 | -1 | 0 | 1 | 0 | .
O=C1CN(C(=O)COC(=O)c2ccc(Br)o2)c2ccccc2N1 | -10 | . | . | -3 | 1 | . | 0 | .
O=C(Nc1cccc(F)c1)C1CCCN(C(=O)c2ccc(Cl)cc2)C1 (configuration not stated) | 4 | . | . | -4 | -19 | . | . | 10
CC1CCCCC1NC(=O)/C=C/c1nc2ccccc2s1 (configuration not stated) | . | i | -7 | 2 | -3 | 1 | 11 | -20
COc1ccc(C(=O)N2CCOC2CNC(=O)C(=O)NCc2ccc(Cl)cc2)cc1 (configuration not stated) | . | i | 2 | 13 | 8 | 0 | . | 1
O=C(Nc1cccn2ncnc12)c1ccccc1 | -5 | i | -5 | 1 | 3 | 5 | 0 | 1
CCOC(=O)c1cnc2c(C)cccc2c1NCCCN1CCOCC1 | -5 | i | 10 | -2 | 1 | 5 | -6 | -14
CN(C(=O)COC(=O)c1ccc2ccccc2n1)C1CCS(=O)(=O)C1 (configuration not stated) | . | i | -1 | -1 | 1 | 5 | -1 | -6
COCCCN1C(=O)C(=O)/C(=C(/O)c2ccccc2)C1c1ccc(N(C)C)cc1 (configuration not stated) | 9 | i | 13 | 2 | 0 | -1 | -9 | 10
Cn1c(=O)c2c(nc(Oc3ccc(-c4ccccc4)cc3)n2C)n(C)c1=O | -11 | i | -6 | 0 | -2 | -4 | 2 | .
COc1ccc(CN(C)CC2CCCN(CCc3ccc(F)cc3)C2)c(OC)c1OC (configuration not stated) | 31 | i | -1 | 10 | 5 | 0 | 17 | 9
COC(=O)Cc1c(C)c2ccc(OCC(=O)NC3CCS(=O)(=O)C3)cc2oc1=O (configuration not stated) | -23 | i | -5 | -1 | 1 | 2 | -9 | -6
COc1ccccc1NC(=O)c1ccccc1S(=O)(=O)c1ccccc1[N+](=O)[O-] | . | i | -10 | 1 | 0 | -14 | 2 | 2
COc1ccc2cc(C(=O)C3CCCN(C(=O)Cc4c(C)noc4C)C3)ccc2c1 (configuration not stated) | -10 | i | -4 | 2 | -4 | -3 | -10 | 18
Cc1cccc(NC(=O)C(Cc2ccccc2)c2nn[nH]n2)c1C (configuration not stated) | -22 | i | -1 | -1 | 2 | -8 | 7 | 4
CCc1ccc(N2CN(Cc3cccnc3)CNC2=S)cc1 | . | i | -6 | 3 | -1 | 0 | 1 | 15
Cc1nnsc1C(=O)NNS(=O)(=O)c1ccccc1 | -13 | i | -17 | -12 | -1 | -7 | 10 | -76
O=C(CSCc1ccc(Br)cc1)N1CCOCC1 | -15 | i | 3 | -2 | -1 | -6 | -3 | -6
CCCNC(=O)c1cc(C2CCCCN2S(=O)(=O)c2ccc(OC)cc2)on1 (configuration not stated) | -16 | . | . | -1 | 3 | . | . | 25
CCc1[nH]nc(C(=O)NC2CCCc3c2cnn3-c2cc(C)cc(C)c2)c1C (configuration not stated) | -7 | i | -6 | 6 | 0 | -9 | 19 | -46
COc1ccc(OCCC(=O)OCC(=O)c2ccc[nH]2)cc1 | . | i | 16 | 1 | 1 | 25 | -8 | -2
CCc1c(C(=O)N/N=C/c2ccco2)nnn1-c1nonc1N | -23 | i | 10 | 5 | 6 | 5 | . | 3

Sorted by count of non-hydrogen atoms (highest first): part of the list above.
SMILES | Yeast UUG start | Rce1 inh | PABP FP inh | MT1-MMP act inh | MT1-MMP act inh RFP | eIF4H FP inh | CSC inhib | Env fusion inh
Cc1ccc2[nH]c(C(=O)N3CCN(C(c4ccccc4)c4ccccc4)CC3)cc2c1 | -11 | i | 6 | 0 | 0 | 7 | 19 | 15
Cn1c(=O)c2c(nc(Oc3ccc(-c4ccccc4)cc3)n2C)n(C)c1=O | -11 | i | -6 | 0 | -2 | -4 | 2 | .
Cc1nnsc1C(=O)NNS(=O)(=O)c1ccccc1 | -13 | i | -17 | -12 | -1 | -7 | 10 | -76

(further entries)
SMILES | Yeast UUG start | Rce1 inh | PABP FP inh | MT1-MMP act inh | MT1-MMP act inh RFP | eIF4H FP inh | CSC inhib | Env fusion inh
CCN(CC)S(=O)(=O)c1cc(NC(=O)C(C)Nc2ccccc2N2CCOCC2)ccc1C (configuration not stated) | 0 | i | -4 | 5 | -1 | 0 | 3 | 1
CCCCc1ccc(NC(=O)CSc2nc(=O)n(CCN(CC)CC)c3c2CCC3)cc1 | 10 | i | . | 4 | -2 | . | 80* | 18
CCC(C)(C)NC(=O)C(c1cccc(OC)c1OC)N(Cc1ccc(OC)cc1)C(=O)CCC(=O)Nc1cc(C)on1 (configuration not stated) | -18 | i | 1 | -6 | -1 | 2 | . | -6
COc1cc(NC(=O)c2csc(N)n2)cc(C(=O)Nc2cccc(C(F)(F)F)c2)c1 | -8&-12 | i | -5 | 8&9 | -18&-13 | -7 | 88* | -12
COc1cccc(N/C(C)=C/C(=O)c2ccc(Br)cc2)c1 | -24 | i | 3 | 1 | -3 | 3 | -10 | .
Cc1ccc(C2=NN(CCC(=O)NCCC(C)C)C(=O)CC2)cc1 | . | i | 7 | . | . | -4 | -11 | .
COc1ccccc1CN1CC(C(=O)NCc2cnn(C)c2)CCC1=O (configuration not stated) | -8 | i | -4 | 0 | 2 | -11 | -8 | 1
COc1ccc(-c2nn3c(-c4ccc(F)cc4)nnc3s2)cc1 | -5 | i | -8 | -4 | 0 | -6 | -3 | -108
Cc1ccc2nc(SCc3nc4cc(Cl)ccc4c(=O)[nH]3)[nH]c2c1 | . | i | 20 | -1 | -2 | -13 | 1 | -15
Cc1ccc(S(=O)(=O)CC(C)N2CCN(C3CCCCC3)CC2)cc1 (configuration not stated) | -4 | i | -7 | 4 | -1 | -3 | 44 | -65
CCOC(=O)c1cc2c(=O)n3cccc(C)c3nc2n(CC2CCCO2)c1=NC(C)=O (configuration not stated) | -12&-5 | i | . | 1&6 | 0&4 | . | 1 | .
O=C(CCNC(=O)c1ccc(Cl)cc1)NNC(=O)c1ccc(F)cc1 | -5 | . | . | 2 | 1 | . | . | -7
Cn1cnnc1SCC(=O)c1c[nH]c2ccccc12 | -15 | i | 8 | -1 | 5 | 5 | -8 | .
NC(N)=N/N=C/c1cc([N+](=O)[O-])ccc1O | -32 | i | -2 | 3 | -3 | -16 | -3 | 14
O=C(COC(=O)c1cccc(NC(=O)c2ccco2)c1)c1ccc(Br)cc1 | -18 | i | 0 | 5 | -11 | -5 | 9 | -25
C[C@H]1O[C@@H](O[C@H]2CC[C@@]3(C)C(CC[C@]4(C)C3C=C[C@]35OC[C@@]6(CCC(C)(C)C[C@H]63)[C@@H](O)C[C@]54C)[C@]2(C)CO)[C@H](O)[C@@H](O[C@@H]2O[C@H](CO)[C@@H](O)[C@H](O)[C@H]2O)[C@H]1O (some centres not stated) | 38 | . | . | 1 | 2 | . | -19 | 2
COc1ccc(CN2CCCCC2C)c(C)c1C (configuration not stated) | -7 | i | -1 | 12 | 9 | -3 | 6 | -58
O=C(NCc1ccco1)c1csc2c1CCCC2 | -1 | i | 4 | 0 | -1 | -2 | -8 | 4
CCCC(=O)Nc1ccc(C(=O)COC(=O)C2CC2)cc1 | -28 | . | . | 1 | -1 | . | -3 | .
CC1CN(C(=O)c2ccc(Br)c(S(=O)(=O)N3CCOCC3)c2)CC(C)O1 (configuration not stated) | -3 | . | . | -2 | -1 | . | . | 17
C/C(=N/NC(=O)c1cc(-c2cccc([N+](=O)[O-])c2)n[nH]1)c1ccc(Cl)cc1 | -23 | i | 0 | -2 | 0 | 2 | -5 | 0
O=S(=O)(NCCc1csc(-c2ccc(C(F)(F)F)cc2)n1)c1ccc2c(c1)OCCO2 | 26 | i | -8 | 7 | -7 | -3 | 24 | 9
COCC(C)N1CCC(Oc2cccc(C(=O)NCCc3ccccc3)c2)CC1 (configuration not stated) | -4 | i | 15 | -2 | 1 | 4 | 8 | .
CCOCCCN(C(=O)c1ccco1)C(C(=O)NC1CCCC1)c1cccc(OC)c1OC (configuration not stated) | -12 | i | 0 | 1 | 4 | -7 | . | .
CC1(C)NC(=O)N(CCCOc2ccc3c(c2)CCC3)C1=O | 1 | i | -4 | 0 | -3 | -2 | 32 | .
O=C(/C=C/Nc1ccc(S(=O)(=O)Nc2cnc3ccccc3n2)cc1)c1ccccc1 | . | i | -5 | -1 | 2 | -7 | . | 0
S=c1[nH]nc(-c2cc3c(s2)-c2ccccc2CC3)o1 | . | ? | 6 | -1 | -4 | -1 | 1 | .
CCOC(=O)C1=C(C)NC(=O)C(C(N)=O)C1c1ccccc1 (configuration not stated) | -3 | i | -6 | 4 | 2 | -4 | 3 | 1
CCCCn1c(N)c(N(CC)C(=O)c2cccc(C)c2)c(=O)[nH]c1=O | -9 | i | -6 | 1 | 2 | -5 | -3 | 4
CCN(C(=O)CN1C(=O)S/C(=C\c2cccc(Cl)c2)C1=O)C1CCS(=O)(=O)C1 (configuration not stated) | 28 | i | -9 | -3 | -4 | -5 | -5 | -4

Some values from the results shown.
NC(N)=N/N=C/c1cc([N+](=O)[O-])ccc1O in MT1-MMP act inh = 3
CCN(C(=O)CN1C(=O)S/C(=C\c2cccc(Cl)c2)C1=O)C1CCS(=O)(=O)C1 (configuration not stated) in MT1-MMP act inh RFP = -4
O=S(=O)(NCCc1csc(-c2ccc(C(F)(F)F)cc2)n1)c1ccc2c(c1)OCCO2 in PABP FP inh = -8
Cn1cnnc1SCC(=O)c1c[nH]c2ccccc12 in Yeast UUG start = -15
C[C@H]1O[C@@H](O[C@H]2CC[C@@]3(C)C(CC[C@]4(C)C3C=C[C@]35OC[C@@]6(CCC(C)(C)C[C@H]63)[C@@H](O)C[C@]54C)[C@]2(C)CO)[C@H](O)[C@@H](O[C@@H]2O[C@H](CO)[C@@H](O)[C@H](O)[C@H]2O)[C@H]1O (some centres not stated) in MT1-MMP act inh RFP = 2
Cc1ccc2nc(SCc3nc4cc(Cl)ccc4c(=O)[nH]3)[nH]c2c1 in MT1-MMP act inh RFP = -2

Pulled by structure from the list above, 2 records:
SMILES | Yeast UUG start | Rce1 inh | PABP FP inh | MT1-MMP act inh | MT1-MMP act inh RFP | eIF4H FP inh | CSC inhib | Env fusion inh
CC(NC(=O)c1ccco1)C(=O)Nc1nc(-c2ccccn2)cs1 (configuration not stated) | -33 | i | 3 | 2 | 3 | 20 | 4 | -40
Cc1ccc(C2=NN(CCC(=O)NCCC(C)C)C(=O)CC2)cc1 | . | i | 7 | . | . | -4 | -11 | .
